Assay outcomes as filed in PubChem BioAssay.
HPGD inh = inhibitors of human 15-hydroxyprostaglandin dehydrogenase (HPGD); purified HPGD, NADH fluorescence kinetic, PGE2 substrate; Potency, µM, inactives show at the top dose activity change, negative = inhibition, most hits filed as inhibitors; 150,000 tested, 4.3% active; AID 894; active = well fitted inhibition curve with a large enough effect (not every such curve was filed as active); inconclusive = small, poorly fitted or top-dose-only effect, or another doubt; inactive = no such curve, though single readings can be large or run the other way;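 further: top concentration of the series not given in the record; plate controls included wells without enzyme; inactives centre near -10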
Target sequence (P15428 whole entry, looked up): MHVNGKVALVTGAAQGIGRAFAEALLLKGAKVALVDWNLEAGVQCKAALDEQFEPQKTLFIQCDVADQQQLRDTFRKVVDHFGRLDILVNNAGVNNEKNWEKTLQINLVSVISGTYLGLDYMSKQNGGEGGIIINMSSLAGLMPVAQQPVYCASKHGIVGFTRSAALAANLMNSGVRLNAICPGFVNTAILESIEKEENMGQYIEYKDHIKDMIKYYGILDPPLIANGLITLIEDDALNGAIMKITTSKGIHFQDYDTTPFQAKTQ
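20 nM HPGD preincubated 15 min at room temperature with compound in 50 mM Tris-HCl pH 8, 0.01% Tween 20. Started with 1 mM NAD+ and 30 uM prostaglandin E2; NADH fluorescence (360/450 nm) read 5 times over 30-s intervals, last minus first.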
An asterisk follows results filed as active; ? = inconclusive; [ ] = remark or other dose. On the % scale 0 is the no-effect control and ±100 the full control effect; potency means the concentration at half of the fitted maximal effect. Some of the compounds tested, so the mix of outcomes need not match the whole.

molecule	HPGD inh
CCC(Sc1ncnc2sc(C)c(C)c12)C(=O)OC (stereo unspecified)	-16%
COc1cccc(N(C(=O)c2ccco2)c2nc(-c3sc(NC(=O)c4ccco4)nc3C)cs2)c1	-4%
O=[N+]([O-])c1ccc(Oc2ccc(F)cc2)c2ccncc12	-13%
CC1CCCC(NC(=O)COC(=O)Cc2ccsc2)C1C (stereo unspecified)	-8%
CC(C)NC(=S)Nc1ccc(Oc2ccccc2)cc1	?
C=CCn1c(NC(=O)c2ccco2)c(S(=O)(=O)c2ccccc2)c2nc3ccccc3nc21	?
Cc1cc(-c2ccc(/C=N/n3cnnc3)o2)ccc1Cl	?
CC1CN(C(=O)c2c(Br)cnn2C)CC(C)O1 (stereo unspecified)	-3%
O=C(COc1ccc(Cl)cc1Cl)N/N=C/CCc1ccccc1	-4%
CCN(CC)C(=O)c1c2c(nc3ccccc13)-c1ccccc1CC2	-16%
NC1CCCCC1N=Cc1c(O)n(CCc2ccc(F)cc2)c(=O)[nH]c1=O (stereo unspecified)	-22%
CCOC1CS(=O)(=O)CC1OCC (stereo unspecified)	2%
Cc1nn(-c2ccccc2)c2nc(-c3ccncc3)cc(C(=O)NCc3ccco3)c12	?
O=C(Cn1cc([N+](=O)[O-])cn1)NCc1cc2ccccc2[nH]1	-4%
O=C(/C=C(\O)c1ccccc1)c1ccccc1O	20µM*
CCc1ccc(CNC(=O)CN2C(=O)COc3ccccc32)cc1	-13%
Nc1nc(CSc2n[nH]c(-c3ccccc3)n2)nc(Nc2ccccc2)n1	13µM*
Cc1cc(CNC(=O)[C@@H]2C[C@H]2[C@@H](NP(=O)(c2ccccc2)c2ccccc2)c2ccccc2)nn1C	-18%
CCOC(=O)c1ccc(NC(=S)N2CCSC2c2ccc(OC)cc2)cc1 (stereo unspecified)	-17%
CCOc1ccc(N=c2scc(-c3ccc(OC)cc3)n2CCO)cc1	-20%
CC(C)CN1CN(Cc2ccco2)CNC1=S	-5%
O=C(Nc1ccccc1)c1ccc2c(c1)OCO2	-30%
O=C(C1CCN(C2CC(=O)N(c3cccc(Cl)c3)C2=O)CC1)N1CCCCCC1 (stereo unspecified)	-10%
O=[N+]([O-])c1nn(-c2ccccc2)n(O)c1=NCCc1ccccc1	-14%
O=C(Nc1ncc(Cc2ccccc2)s1)c1cccs1	-14%
Cc1occc1C(=O)Nc1ccc2c(c1)OCO2	-8%
Cc1cccc(-n2c(C)nc3cc(C(=O)NCc4ccc5c(c4)OCO5)ccc32)c1	-22%
Cc1cc(C)nc(Nc2ncc(O)n2-c2ccc(C)c(Cl)c2)n1	-9%
O[C@@](CCN1CCCC1)(c1ccccc1)C1CCCCC1	5%
COc1ccc(CCN2C(=O)C3C4CC(C5C(C(=O)NN)=NOC45)C3C2=O)cc1OC (stereo unspecified)	-5%

Look-ups from the results shown:
CCOC1CS(=O)(=O)CC1OCC (stereo unspecified) in HPGD inh → 2%
Cc1cccc(-n2c(C)nc3cc(C(=O)NCc4ccc5c(c4)OCO5)ccc32)c1 in HPGD inh → -22%

Next section.
molecule	HPGD inh
Cc1oc(C(=O)Nc2ccc(C(=O)O)cc2)cc1COc1ccccc1	20µM*
CNC(=S)N(CCc1cccc(C)c1)Cc1cc2cc(OC)c(OC)cc2[nH]c1=O	?
C=CCn1c(CCCNC(=O)C(C)(C)C)nc2ccccc21	-5%
O=C(c1ccccc1)N1CCN(Cc2c[nH]c3ccccc23)CC1	-5%
S=c1[nH]nc(-c2cccnc2)o1	-9%
COCCNC(=O)C1CCC(Cn2c(=S)[nH]c3ccccc3c2=O)CC1 (stereo unspecified)	1.8µM*
CC(=O)c1cccc(NC(=O)N2CCCC2C(=O)Nc2c(C)cccc2C)c1 (stereo unspecified)	-8%
OC(CNCCC1C=Nc2ccccc21)Cn1c2ccc(Cl)cc2c2cc(Cl)ccc21 (stereo unspecified)	-16%
O=C(OCC(=O)N1CCN(c2ccccc2)CC1)c1ccccn1	-2%
O=C(/C(=N\Nc1ccc(Br)cc1)Sc1nnnn1-c1ccccc1)c1ccccc1	-9%
Cc1n[nH]c(C)c1S(=O)(=O)N1CCC(C(=O)N2CCn3c2nc2ccccc23)CC1	-2%
Cc1ccc2occ(-c3nn[nH]n3)c(=O)c2c1	-10%
O=C(O)Cc1nc2nc3c(c(=O)n2[nH]1)CCCC3	-16%
N#Cc1nc(Cc2cccc3ccccc23)oc1N1CCCCC1	-16%
COC(=O)c1[nH]c2ccc(Cl)cc2c1NC(=O)Oc1ccccc1	?
COc1ccc(N(CC(=O)NC2CCCC2)C(=O)Cn2nnc(-c3ccc(F)cc3)n2)cc1OC	-5%
COc1ccc(S(=O)(=O)Cc2ccc(C(=O)NC3CCCC3)o2)cc1	-6%
CCOc1ccc(CCNC(=O)CCCN2C(=O)c3ccccc3C2=O)cc1OCC	-6%
O=C(O)C1CSCN1S(=O)(=O)c1cccc2nsnc12 (stereo unspecified)	-18%
O=C(c1ccc(Cl)c(S(=O)(=O)Nc2ccc(F)cc2)c1)N1CCN(c2ccccn2)CC1	-4%
O=C(O)/C=C1\NC(=O)c2ccccc21	-12%
Cc1ccc(S(=O)(=O)N(Cc2ccccc2)c2ccccc2C(=O)Nc2ccccc2C(=O)NCc2ccco2)cc1	?
O=c1[nH]c(N2CCc3ccccc3C2)nc2c1CCC2	-14%
CO/N=C/c1ccc(N2CCN(C(=O)c3ccc(C)cc3)CC2)c([N+](=O)[O-])c1	-16%
S=C(N/N=C/c1ccccc1)N1CCOCC1	-9%
O=C(CC(c1ccccc1)c1ccccc1O)NCCN1CCOCC1 (stereo unspecified)	-10%
CC(=O)Nc1ccc(NC(=O)/C(Cl)=C/c2ccccc2)cc1	-15%
CC(=O)c1cccc(NC(=O)C2CCN(S(=O)(=O)c3cccs3)CC2)c1	-12%
O=C(c1ccc(N2CCNCC2)cc1)c1cccnc1	-1%
CCCCN1C(=O)/C(=C(/C#N)C(N)=O)c2ccccc21	-8%
CC1CN/C(=C\C(=O)c2ccc(Cl)cc2)C(=O)N1 (stereo unspecified)	-22%
CC(NC(=O)C1(C)CC1(Br)Br)C(C)(C)C (stereo unspecified)	-3%
O=C(CSc1nccc(=O)[nH]1)Nc1ccc(S(=O)(=O)N2CCOCC2)cc1	9%
Cc1ccc2nc(NC(=O)c3ccc(S(=O)(=O)N4CCCc5ccccc54)cc3)sc2c1	-12%
Cc1ccnc(SCc2cc(=O)c(OC(=O)c3cc([N+](=O)[O-])ccc3Cl)co2)n1	?
CCOc1nc2cccc(C(=O)OC(C)OC(=O)OC3CCCCC3)c2n1Cc1ccc(-c2ccccc2-c2nn[nH]n2)cc1 (stereo unspecified)	?
Cc1ccc(Sc2nc(C)cc(C)c2S(C)(=O)=O)cc1	-18%
CCOc1ccc(CCNC(=O)c2cc3sc(Cl)cc3n2C)cc1OCC	1%
Cc1ccc(C)c(NS(=O)(=O)c2cc(Br)cnc2N)c1	-4%
O=C(Nc1ccccc1)N1CCSCC1	-19%
CCOC(=O)c1nn(C23CC4CC(CC(C4)C2)C3)c2c1C(=O)N(c1ccc(C)cc1)C2=O	-6%
Cc1ccc(Nc2c([N+](=O)[O-])c(=O)n(C)c3ccccc23)cc1C	-11%
Cc1cccc(OCC(=O)NNC(=O)C2CCCCC2C(=O)O)c1 (stereo unspecified)	-15%
COc1cc(OC)c(Cl)cc1N	-6%
CCOC(=O)c1c(C)n(C)c2ccc(OCC(O)CN3CCC(C)CC3)cc12 (stereo unspecified)	-12%
Cc1ccc(CNC(=O)c2cn(C3CCCC3)c(=O)c3c2c2ccccc2n3C)o1	?
NC(=O)c1ccsc1NC(=O)COC(=O)Cc1cccc2ccccc12	-25%
O=C(CN1CCN(c2ccccc2O)CC1)NC(c1ccccc1)c1ccccc1	-3%
O=C(COc1ccccc1)NNc1c2ccccc2nc2ccccc12	-16%
CNC(=O)c1nn(-c2ccccc2)ccc1=O	-10%
Cc1ccc(-n2c(Cn3c(C)nc4ccccc43)n[nH]c2=S)cc1	-18%
COC(=O)c1ccccc1NC(=O)c1ccc(-c2ccccc2F)o1	?
O/N=C/c1ccc(-c2cc(Cl)ccc2Cl)o1	4.5µM*
Cc1cc(C)cc(OCC(=O)N(Cc2cccs2)C2CCS(=O)(=O)C2)c1 (stereo unspecified)	-2%
O=C1c2cccc3cccc(c23)C(=O)N1CCN1CCN(CC(O)COc2ccc3ccccc3c2)CC1 (stereo unspecified)	-15%
CCOC(=O)c1ccc(NS(C)(=O)=O)cc1	?
Cc1ccc(O)c(C(=O)c2cnc3c(c2)COc2ccc(C)cc2-3)c1	18µM*
COc1cccc(NC(=O)CNC(C)CCC(C)C)c1 (stereo unspecified)	-3%
NS(=O)(=O)c1ccc(CNC(=S)NCc2ccc(Cl)cc2)cc1	-11%
CC[C@@H]1C(c2ccc(F)cc2)=NN(c2ccccc2)[C@H]1C(=O)N1CCOC1=O	?

Grouped by structure: the compounds so far with a tert-butyl group.
molecule	HPGD inh
C=CCn1c(CCCNC(=O)C(C)(C)C)nc2ccccc21	-5%
CC(NC(=O)C1(C)CC1(Br)Br)C(C)(C)C (stereo unspecified)	-3%

Going on with the list.
molecule	HPGD inh
CCOC(=O)c1ccc2c(c1)nc(C1CCN(S(=O)(=O)c3cccs3)CC1)n2CC	-2%
CCC(N=c1cc(-c2ccc(OC)c(OC)c2)oc2ccc(C)cc12)C(=O)O (stereo unspecified)	-10%
O=C(c1cccc(S(=O)(=O)N2CCOCC2)c1)N1CCCCCC1	1%
CCC(C)(C(=O)NC1CCCCC1)N(C(=O)Cc1cccs1)c1ccccc1 (stereo unspecified)	-1%
Cc1nn(C)c(C)c1CN(C)S(=O)(=O)c1ccc(F)cc1	-7%
Cn1nnnc1SCC(=O)N1CCN(c2ccc(Cl)cc2)CC1	-7%
Cc1ccc(C)n1-c1ccc2c(c1)COC2=O	-24%
Cc1cc(SCC(=O)N/N=C/c2ccc(O)c(O)c2)c(C)cc1Br	2.8µM*
CCOC(=O)/C(C#N)=C/c1ccc(OCC(=O)Nc2ccc(OC)cc2)c(OC)c1	-31%
CCOC(=O)c1c(C)[nH]c(C(=O)CN2C(=O)NC(CC)(c3ccccc3)C2=O)c1C (stereo unspecified)	-17%
Cc1cc(C)c(S(=O)(=O)N2CCOC2CNC(=O)C(=O)NCc2ccco2)c(C)c1 (stereo unspecified)	-9%
N#CC1(c2ccccc2)CCC(=NO)CC1 (stereo unspecified)	-14%
COc1cccc(C2=NOC(C(=O)N3CCOCC3)C2)c1 (stereo unspecified)	-7%
COc1ccc(OC)c(N2C(=O)[C@@H]3C(c4ccccc4Cl)=NO[C@@H]3C2=O)c1	-12%
Cc1oc2c(c(=O)c1C)C(=O)CC(c1ccccc1)C2 (stereo unspecified)	-14%
CN(C1CCCC1)C1CCN(C(=O)CNC(=O)/C=C/c2ccccc2)CC1	-9%
Cc1c(NC(=O)c2cccc(S(=O)(=O)N3CCOCC3)c2)c(=O)n(-c2ccccc2)n1C	-3%
Cc1cccc(C2=NN(c3ccc(Br)cc3)[C@@H](C(=O)N3CCOC3=O)[C@@H]2c2ccccc2)c1	?
CC(=O)NCN1CCN(CNC(C)=O)CC1	-5%
Cn1c(-c2ccc(F)cc2)cnc1NCc1ccc(C#N)cc1	-14%
CC(NO)C(C)(C)NO (stereo unspecified)	0%
Cc1cc(Nc2ccc(F)cc2C)n2nc(C)nc2n1	-5%
Cc1ccc(C)c(NC(=O)Cn2nc([N+](=O)[O-])c(Br)c2C)c1	-4%
CCOc1ccc2nc(NC(=O)CN3CCC(n4nnc5cc(C(F)(F)F)ccc54)CC3)sc2c1	-18%
COc1ccccc1NS(=O)(=O)c1ccc(OC)c(OC)c1	-5%
COc1ccccc1N1CCN(C/C=C/c2ccc(N(C)C)cc2)CC1	?
O=C(/C(=C/c1ccccc1)c1ccccc1)N1CCCCC1	0.71µM*
O=C1CN(C(=O)CSc2nc3cc(Cl)ccc3c(=O)n2Cc2ccccc2)c2ccccc2N1	-17%
C=CCn1c(=O)c2ccccc2n2c(Sc3nnnn3-c3ccccc3)nnc12	-22%
CCCCSCc1nc2nc(Cl)c(Cl)nc2[nH]1	11%

The list goes on (4 carried over from the part before).
molecule	HPGD inh
O=C(/C(=C/c1ccccc1)c1ccccc1)N1CCCCC1	0.71µM*
O=C1CN(C(=O)CSc2nc3cc(Cl)ccc3c(=O)n2Cc2ccccc2)c2ccccc2N1	-17%
C=CCn1c(=O)c2ccccc2n2c(Sc3nnnn3-c3ccccc3)nnc12	-22%
CCCCSCc1nc2nc(Cl)c(Cl)nc2[nH]1	11%
CS(=O)(=O)N1CCN(c2c(Cl)cccc2[N+](=O)[O-])CC1	0%
O=C(NC(C(=O)O)c1ccccc1)c1ccccc1 (stereo unspecified)	-3%
CC(=O)COc1ccc2c3c(c(=O)oc2c1)CCCC3	222%[activator]
Cn1ccnc1SCC(=O)c1cccc(Br)c1	-20%
Cc1ccccc1NC(=O)c1ccc(F)c(S(=O)(=O)N2CCN(c3ccccn3)CC2)c1	-20%
CCN1CCN(C(=S)NCCc2ccccc2)CC1	-2%
